Compound activity as filed in PubChem.
KCNQ2 inh: KCNQ2 channel blockers in CHO-K1 cells – cell-based, FluxOR thallium flux, B-score, primary screen (AID 2156); 20 min; active compounds read low; only compounds with negative scores are shown here; some inactives read as strong as hits; B-score at 10 µM; O88943; 310,000 compounds, 1.1% hits;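 active = fluorescence ratio B-score at most minus 3 library SDs, with starting brightness B-score within 2 library SDs, cut at about -5.5 in these data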
Target sequence (O88943 whole entry, looked up): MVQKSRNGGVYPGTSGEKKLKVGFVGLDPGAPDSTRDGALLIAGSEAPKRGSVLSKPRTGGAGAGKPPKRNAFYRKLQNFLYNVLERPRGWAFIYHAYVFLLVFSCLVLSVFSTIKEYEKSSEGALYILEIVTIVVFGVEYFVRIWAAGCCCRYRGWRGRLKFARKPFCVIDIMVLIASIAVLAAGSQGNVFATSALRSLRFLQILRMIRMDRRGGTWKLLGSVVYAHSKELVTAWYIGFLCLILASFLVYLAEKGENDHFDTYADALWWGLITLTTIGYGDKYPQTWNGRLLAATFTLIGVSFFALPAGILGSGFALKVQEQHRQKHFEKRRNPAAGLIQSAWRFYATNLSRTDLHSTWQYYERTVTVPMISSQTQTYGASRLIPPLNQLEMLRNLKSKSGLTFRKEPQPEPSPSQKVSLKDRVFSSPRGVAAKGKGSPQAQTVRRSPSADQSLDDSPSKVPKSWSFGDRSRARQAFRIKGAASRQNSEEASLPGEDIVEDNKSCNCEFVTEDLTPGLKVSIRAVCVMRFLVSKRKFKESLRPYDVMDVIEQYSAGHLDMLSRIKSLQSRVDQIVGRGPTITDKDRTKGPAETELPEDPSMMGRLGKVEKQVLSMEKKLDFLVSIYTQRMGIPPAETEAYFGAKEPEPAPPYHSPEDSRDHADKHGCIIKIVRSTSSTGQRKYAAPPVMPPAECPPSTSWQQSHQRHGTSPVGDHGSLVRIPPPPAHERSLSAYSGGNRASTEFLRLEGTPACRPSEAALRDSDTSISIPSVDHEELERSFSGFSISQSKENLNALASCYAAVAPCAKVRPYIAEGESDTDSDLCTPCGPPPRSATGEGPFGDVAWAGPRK
KCNQ2 inh baseline: further read-out of KCNQ2 inh, marked with its call; B-score; measured here: initial fluorescence intensity artifact check;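 brightness before thallium and not channel activity; 0 = typical well and far values either way flag optical interference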
Starred values were filed as active, the others as inactive; i = inactive. This is a subset. The share of hits here may be higher or lower than overall.

KCNQ2 inh baseline | KCNQ2 inh | molecule
-1.6 | i | Cc1ccc(NC(=O)CCNS(=O)(=O)c2ccc3[nH]c(=O)oc3c2)c(Cl)c1
1* | -7.4* | COc1ccccc1N1CCN(C(=O)C(Cc2ccccc2)NC(=O)C2CCCCC2)CC1 (configuration not stated)
-0.12 | i | O=C1c2ccccc2NC(c2ccccn2)N1NS(=O)(=O)c1ccccc1 (configuration not stated)
-1.4 | i | CCOC(=O)N1CCC(NC(=O)CCCN2C(=O)CSc3ncccc32)CC1
-0.18 | i | CC(C)=C1C2C=CC1C(C(=O)Nc1cc(C)ccc1C)C2C(=O)O (configuration not stated)
-0.03 | i | COC(=O)[C@H](CCSC)NC(=O)Nc1ccc(C)cc1C
0.03 | i | Cc1ccc(/C=C/C(=O)O)cc1S(=O)(=O)NCc1cccnc1
-2* | -5.6* | CN(c1ccccc1)S(=O)(=O)c1cccc(Cl)c1Cl
-2.1 | i | CCOC(=O)C1(Cc2cccc(Cl)c2)CCCN(C(=O)CCC(=O)N(C)C)C1 (configuration not stated)
0.92 | i | O=C(NC1CC1)C1=C[C@H](C2CCCCC2)C[C@H](OCc2ccc(CO)cc2)O1
-0.1 | i | COc1ccc(S(=O)(=O)NCC2CCCN(C(=O)c3sccc3C)C2)cc1 (configuration not stated)
-1 | i | COc1ccnc(Oc2ccccc2)c1C(=O)N/C=N/OCc1ccccc1
1.3 | i | O=S(=O)(Cc1ccccc1)NCCc1ccc(F)cc1
0.88 | i | COc1ccc(CN2CCNC(=O)C2CC(=O)N(C)Cc2cc(C)no2)cc1OC (configuration not stated)
1.8 | i | CC(=O)c1c(C)nc(-c2ccccc2)n1O
-0.02 | i | Cc1ccc(C(NC(=O)C(C)C)c2cc([N+](=O)[O-])c3cccnc3c2O)cc1 (configuration not stated)
-0.87 | i | Cc1ccccc1OCCn1cc(C(=S)N2CCN(C)CC2)c2ccccc21
0.11 | i | CC(C)c1ccc(NC(=O)CSC(C)c2nc3ccccc3c(=O)[nH]2)cc1 (configuration not stated)
-0.04 | i | O=C(/C(=C/c1cccc(Cl)c1)c1nc2ccccc2[nH]1)c1ccccc1
1.2 | i | O=C(Nc1cccc(NC(=O)c2ccco2)n1)c1ccco1
-0.12* | -5.6* | CCO/C(C)=N/n1c2nc3ccccc3nc2c2c(=O)n(CC(C)C)c(C)nc21
-0.19 | i | O=C(NNC(=O)c1cccs1)c1cccc(F)c1
0.14 | i | C/C(=N/NC(=O)c1ccc2c(c1)OCO2)c1ccc(NC(=O)c2ccc(F)cc2)cc1
-1.2 | i | CC(C)N=C1NN=C(c2ccc(F)cc2)CS1
-0.4 | i | CCOc1ccc(CCNC(=O)C2CC(C)=CCC2C(=O)O)cc1OCC (configuration not stated)
1.2 | i | COc1cc(C2C(C(C)=O)=C(O)C(=O)N2c2ccc(Br)cn2)ccc1O (configuration not stated)
1.4 | i | C#CCOCCOCCOCCNc1nc(N2CCN(C(=O)Cn3cc(CC(C)O)nn3)CC2)nc(N2CCN(C(=O)[C@H]([C@@H](C)CC)n3cc(CCCN=C(N)N)nn3)CC2)n1 (some centres not stated)
-0.64 | i | CS(=O)(=O)c1ccc(C(=O)OCC(=O)NC(=O)Cc2ccccc2)cc1
-0.83 | i | C=CCNC(=O)c1nc2ccccc2s1
0.27 | i | COc1ccc(C)cc1NC(=O)CN(C)S(=O)(=O)c1ccc2c(c1)c(=O)n(C)c(=O)n2C
0.11 | i | COc1ccccc1NC(=O)c1cc2cc(Br)ccc2cc1O
4.3 | i | Cc1ccccc1NC(=O)CSc1nc2ncc(Cl)cc2[nH]1
0.78 | i | COc1ccc(NC(=O)c2cc(-c3ccc(OC)c(OC)c3)on2)cc1OC
0.01 | i | CCSc1nnc(NC(=O)CCn2c(=O)oc3ccccc32)s1
1.3* | -7.4* | O=C(C1COc2ccccc2O1)N1CCN(c2ccccc2Cl)CC1 (configuration not stated)
0.94 | i | CC(C)(C)NC(=O)NC(=O)CN1CCN(c2ccc(O)cc2)CC1
2.2 | i | COc1ccc(C(=O)NCCCN2CCOCC2)cc1OC
-1.6 | i | CSc1nc2ccc(NS(=O)(=O)c3ccccc3F)cc2s1
-0.34 | i | O=C(O)CCCC(=O)NS(=O)(=O)c1ccc(Cl)cc1
1.4 | i | CCOC(=O)CSC1=C(C#N)C(c2ccccc2Cl)C(C(=O)OC)C(=O)N1 (configuration not stated)
1.5 | i | O=C(COC(=O)COc1ccc(Cl)cc1)Nc1ccc(N2CCOCC2)cc1
2.8 | i | COC(=O)c1ccccc1NC(=O)Nc1ccc(C)cn1
0.14 | i | C=C1c2ccc(C)cc2NC(=O)N1c1ccccc1
-0.86 | i | CCc1cccc(CC)c1NC(=S)Nc1cccc(Cl)c1Cl
-1.5 | i | CC(Cl)C(=O)NNC(=O)CNS(=O)(=O)c1ccccc1 (configuration not stated)
0.11 | i | Cc1ccc2nc(C)cc(N3CCOCC3)c2c1
-1 | i | O=C(NCC1CCCO1)/C(=C/c1ccc(Cl)cc1)NC(=O)c1ccccc1 (configuration not stated)
-0.08 | i | Cc1ccccc1N1CCN(C(=O)CCN2C(=O)c3ccccc3C2=O)CC1
0.82 | i | CCN(C(=O)c1cc2ccccc2o1)C12CC3CC(CC(C3)C1)C2
1 | i | N#C/C(=C\c1ccncc1)c1nc2ccccc2o1
0.41 | i | CCCCN(C(=O)Cc1ccc(S(=O)(=O)N2CCOCC2)s1)c1ccccc1
2.7 | i | CC(C)CCN1CCN(CCCn2cccn2)CC1CCO (configuration not stated)
1.2 | i | O=S(=O)(NCC(c1ccco1)N1CCN(c2ccccc2F)CC1)c1ccccc1 (configuration not stated)
-1.6 | i | COc1ccccc1NC(=O)c1cc(S(=O)(=O)N2CCCCCC2)ccc1F
-0.01 | i | CCOC(=O)Cc1csc(SC(C)C(=O)Nc2ccc(NC(C)=O)cc2)n1 (configuration not stated)
1 | i | O=C1OC(C(=O)O)Cc2ccccc21 (configuration not stated)
-0.57 | i | Nc1nonc1-c1noc(N2CCOCC2)n1
2.1 | i | Cc1ccc(S(=O)(=O)Nc2ccc3nc(N)sc3c2)cc1
0.65* | -6.6* | Cc1cccn2c(/C=N/OCc3ccc(F)cc3)c(-c3ccc(Cl)cc3)nc12
0.55 | i | CC(NC(=O)Cc1ccccc1)c1ccccc1 (configuration not stated)

Profiles from above. Order of screens: KCNQ2 inh baseline	KCNQ2 inh
CCOC(=O)CSC1=C(C#N)C(c2ccccc2Cl)C(C(=O)OC)C(=O)N1 (configuration not stated) is entered as 1.4	i
O=C1c2ccccc2NC(c2ccccn2)N1NS(=O)(=O)c1ccccc1 (configuration not stated) is entered as -0.12	i

(list continues)
KCNQ2 inh baseline | KCNQ2 inh | molecule
-1.3 | i | CCCCOC(=O)Nc1cc(OC)c(Cl)cc1OC
0.03 | i | Cc1cccc(NC(=O)CCCN2C(=O)C(c3ccccc3)Oc3cccnc32)c1C (configuration not stated)
0.04 | i | COc1ccc(CNC(=O)c2ccc3c(c2)N(C)C(=O)CS3=O)cc1 (configuration not stated)
-0.63 | i | COc1ccc(Cl)cc1C(=O)Nc1ccc(NC(C)=O)cc1
-0.54 | i | COc1cc(/C=C2/C(=O)N(c3ccc(Br)cc3)N=C2C)cc([N+](=O)[O-])c1O
0.08 | i | O=[N+]([O-])c1ccc(Cl)c(C[n+]2cccc3ccccc32)c1
1.2 | i | CCn1c(-c2ccc[nH]c2=O)nc2ccccc21
0.41 | i | COc1cccc(-n2c(C)nn(CCOc3ccccc3)c2=O)c1
0.68 | i | O=C(CCN1CCN(c2ccccc2F)CC1)Nc1ccc(F)cc1
2.2 | i | CCN(CC)CCNc1nc(-c2cccs2)c(CC(=O)O)s1
1 | i | Clc1ccc(OCc2nc(-c3ccc(Br)o3)no2)cc1
-0.11 | i | CC1(C)CC(=O)C/C(=N/NC(=O)CCCOc2ccc(Cl)cc2Cl)C1
-0.86 | i | Cc1c(CC(=O)Nc2ccc(Cl)cc2)sc2ccc(Cl)cc12
0.97 | i | c1ccc(CN2CCC(Nc3nc(-c4ccccc4)nc4ccccc34)CC2)cc1
-1.8 | i | Nc1nc2n(c1C(=O)c1ccccc1)CCC2
0.93 | i | O=C(c1ccc(Oc2cc(Cl)cc(Cl)c2)o1)N1CCCCC1
1.9 | i | O=C(COC(=O)c1cc2ccccc2oc1=O)Nc1cccc(Br)c1
-1 | i | Cc1nc(-c2ccccc2)sc1C1(C)CC(c2cccc([N+](=O)[O-])c2)=NO1 (configuration not stated)
1 | i | CCCOc1ccc(C2CC(=O)NC2=O)cc1 (configuration not stated)
1.8 | i | COc1cccc(-n2c(C)nn(C)c2=O)c1
-1.4 | i | O=C1CC(c2ccccc2)CC(O)=C1C=Nc1ccccc1 (configuration not stated)
-0.01 | i | CCOC(=O)c1cc(-c2ccccc2)sc1NC(=O)CC(C)C
1.6 | i | COc1ccc(Br)c(C(=O)NC2CCCC2)c1
1.6 | i | O=C(CNC(=O)c1ccccc1F)OC(C(=O)Nc1cc(C(F)(F)F)ccc1Cl)c1ccccc1 (configuration not stated)
1.5 | i | COc1ccccc1NC1=NCC(=O)N1Cc1ccccc1
-0.53 | i | O=C(NNc1cccc(Cl)n1)Nc1cccc(Cl)c1
-2.6 | i | Cc1cc(C(=O)N/N=C/c2ccc(-c3cccc(Br)c3)o2)n[nH]1
1.9 | i | CCCC(c1nnnn1Cc1cccs1)N1CCN(c2ccc(OC)cc2)CC1 (configuration not stated)
0.48 | i | CCOC(=O)Cc1csc(NC(=O)Nc2ccc(Cl)cc2)n1
-0.66 | i | COc1cc2cc(CN(Cc3nnnn3Cc3ccccc3)CC3CCCO3)c(=O)[nH]c2cc1OC (configuration not stated)

Taken from above.
KCNQ2 inh baseline result of `O=C(CCN1CCN(c2ccccc2F)CC1)Nc1ccc(F)cc1` reads 0.68
KCNQ2 inh baseline result of `O=C(CNC(=O)c1ccccc1F)OC(C(=O)Nc1cc(C(F)(F)F)ccc1Cl)c1ccccc1` (configuration not stated) reads 1.6
KCNQ2 inh baseline result of `COc1cccc(-n2c(C)nn(CCOc3ccccc3)c2=O)c1` reads 0.41

(next part)
KCNQ2 inh baseline | KCNQ2 inh | molecule
-0.14 | i | O=C1c2ccccc2NC(c2ccccc2F)N1NS(=O)(=O)c1ccccc1 (configuration not stated)
0.23 | i | CCC(C(=O)NC(C)(C)C)N(C(=O)Cn1nnc(-c2cccs2)n1)c1cnc2ccccc2c1 (configuration not stated)
-0.05 | i | O=S(=O)(c1ccccc1)c1cnc(-c2cccnc2)nc1-c1ccc(Cl)c(Cl)c1
1.3 | i | CCNC(=O)c1c(O)c2c([nH]c1=O)CCCC2
-1.3 | i | CCCCN1CC[C@H]2C=CC[C@@H](C(=O)Nc3ccc(Cl)cc3Cl)[C@H]2C1=O
0.04 | i | COc1ccc(CNn2c(-c3cccc(C)c3)nc3ccccc3c2=O)cc1OC
1.1 | i | COc1ccc(NC(=O)CC(=O)Nc2ccc(OC)cc2)cc1
-0.07 | i | O=C(NCCN1CCOCC1)C(=O)NCC1OCCCN1S(=O)(=O)c1ccc(F)cc1 (configuration not stated)
2.4 | i | Cc1nn(-c2ccccc2)c(Cl)c1C(=O)N1CCN(c2ncnc3c2cnn3-c2ccccc2)CC1
0.09 | i | O=C(NCc1ccccn1)c1ccc(NS(=O)(=O)c2cccc(Cl)c2)cc1
-1.4 | i | CC(=O)Oc1ccc(/C=N/NS(=O)(=O)c2ccc(C)cc2)c(OC(C)=O)c1
-0.35 | i | Cc1csc(NC(=O)CCSCCc2ccccn2)n1
-0.07 | i | O=S(=O)(Nc1nc(-c2ccccc2)cs1)c1cc(Cl)ccc1Cl
0.07 | i | C1=C(CCNC2=NCCCCC2)CCCC1
-0.33 | i | CCN(CC)C(=O)c1cn(C)c2ccc(S(=O)(=O)N(CC)CC)cc2c1=O
0.36 | i | O=S(=O)(c1ccc(S(=O)(=O)N2CCCC3(CCCCC3)C2)cc1)N1CCCCC1
-2 | i | COc1ccc2[nH]c(C(=O)O)c(NS(=O)(=O)c3ccc(C)c(C)c3)c2c1
-0.19 | i | Cc1cccc(N2CCN(CC(O)COc3ccccc3Cl)CC2)c1 (configuration not stated)
1.6 | i | CCOC(=O)c1c(C)oc(NC(=O)CCl)c1C(=O)OCC
3 | i | O=C(c1cnn2cccnc12)N1CCN(c2ccccc2)CC1
-1.5 | i | CC(/C=N/NC(=O)c1c(Br)cnn1C)=C\c1ccccc1
-1.8 | i | CC(C)(C)c1ccc(C(=O)N2CCCC2c2cccs2)cc1 (configuration not stated)
-2.4 | i | CC1C(=O)N2CCCc3cc(NC(=O)c4ccccc4Br)cc1c32 (configuration not stated)
-1.2 | i | Cc1ccc(C)c(NC2=NCC(=O)N2c2ccc3c(c2)OCCO3)c1
-3.3 | i | CCOc1ccc(NC(=O)Nc2cc(C(=O)O)ccc2N2CC3CC(C2)c2cccc(=O)n2C3)cc1 (configuration not stated)
2.1 | i | COCCn1c(SCc2nc3ccccc3s2)nc2ccccc21
0.18 | i | CCO/C([O-])=N/c1c[n+](N2CCOCC2)no1

In the list so far, 11 have two or more sulfur atoms:
KCNQ2 inh baseline | KCNQ2 inh | molecule
-0.1 | i | COc1ccc(S(=O)(=O)NCC2CCCN(C(=O)c3sccc3C)C2)cc1 (configuration not stated)
0.01 | i | CCSc1nnc(NC(=O)CCn2c(=O)oc3ccccc32)s1
-1.6 | i | CSc1nc2ccc(NS(=O)(=O)c3ccccc3F)cc2s1
0.41 | i | CCCCN(C(=O)Cc1ccc(S(=O)(=O)N2CCOCC2)s1)c1ccccc1
-0.01 | i | CCOC(=O)Cc1csc(SC(C)C(=O)Nc2ccc(NC(C)=O)cc2)n1 (configuration not stated)
2.1 | i | Cc1ccc(S(=O)(=O)Nc2ccc3nc(N)sc3c2)cc1
2.2 | i | CCN(CC)CCNc1nc(-c2cccs2)c(CC(=O)O)s1
-0.35 | i | Cc1csc(NC(=O)CCSCCc2ccccn2)n1
-0.07 | i | O=S(=O)(Nc1nc(-c2ccccc2)cs1)c1cc(Cl)ccc1Cl
0.36 | i | O=S(=O)(c1ccc(S(=O)(=O)N2CCCC3(CCCCC3)C2)cc1)N1CCCCC1
2.1 | i | COCCn1c(SCc2nc3ccccc3s2)nc2ccccc21
